Screening data: PubChem BioAssay, National Center for Advancing Translational Sciences (NCATS)
2A Renilla = lowers the Renilla signal of an FMDV 2A StopGo reporter | HEK cells with a luciferase reporter of 2A StopGo recoding | Potency, µM (titrated, usually from 57.5 µM), inactives show at the highest dose signal change, negative = less light | 120,000 compounds, 0.32% hits; active means well fitted falling curve with a large enough effect; inconclusive means small, poorly fitted or top-dose-only effect; inactive means no such curve, though single readings can be large or run the other way; further: nearly all actives have a fitted effect of over 55% in size; overnight with compound
StopGo FLuc = FMDV 2A StopGo reporter, firefly signal; HEK cells with a luciferase reporter of 2A StopGo recoding; Potency, µM (doses to about 57.5 µM), for the others: at the highest dose signal change, negative = less light; 120,000 compounds, 0.23% hits; AID 1745856; active = well fitted falling curve with a large enough effect; inconclusive = small, poorly fitted or top-dose-only effect; inactive = no such curve, though single readings can be large or run the other way; further: nearly all actives have a fitted effect of over 60% in size; overnight with compound
An asterisk follows results filed as active; ? = inconclusive; & = joins results of further samples; [ ] = dose if it differs, or a comment. On the % scale 0 is the no-effect control and ±100 the full control effect; potency means the concentration at half of the fitted maximal effect.

Sample of the layout:
Values run as follows: 2A Renilla	StopGo FLuc
1. O=C(CSc1ccc(-c2cccs2)nn1)Nc1ccccc1
    26.4%	32.9%
2. CC1=C[C@]2(C[N+](Cc3ccccc3)=C(N)N2)n2c(=O)n(-c3ccccc3)c(=O)n2C1
    -7.2%	-2.3%
3. CCn1c(C)c(C)c2cc(C(=O)NCCc3cc(OC)ccc3OC)ccc21
    10.4%	-15.7%
4. CCCOc1ccc(C2C3=C(CC(C)(C)CC3=O)Nc3cc4c(cc32)OCO4)cc1 (stereo not given)
    92.6%[activator]	-28.6%
5. CC(C)c1ccc(C(=O)Nc2cc(-c3ccccc3F)nn2-c2ccccc2)cc1
    -6.7%	14.1%
6. Cc1ccc(-c2ccc(=O)n(Cc3noc(C(=O)NC(C)Cc4ccco4)n3)n2)cc1 (stereo not given)
    127.4%[activator]	17.0%

This part in full, repeating the preview:
Values run as follows: 2A Renilla	StopGo FLuc
1. O=C(CSc1ccc(-c2cccs2)nn1)Nc1ccccc1
    26.4%	32.9%
2. CC1=C[C@]2(C[N+](Cc3ccccc3)=C(N)N2)n2c(=O)n(-c3ccccc3)c(=O)n2C1
    -7.2%	-2.3%
3. CCn1c(C)c(C)c2cc(C(=O)NCCc3cc(OC)ccc3OC)ccc21
    10.4%	-15.7%
4. CCCOc1ccc(C2C3=C(CC(C)(C)CC3=O)Nc3cc4c(cc32)OCO4)cc1 (stereo not given)
    92.6%[activator]	-28.6%
5. CC(C)c1ccc(C(=O)Nc2cc(-c3ccccc3F)nn2-c2ccccc2)cc1
    -6.7%	14.1%
6. Cc1ccc(-c2ccc(=O)n(Cc3noc(C(=O)NC(C)Cc4ccco4)n3)n2)cc1 (stereo not given)
    127.4%[activator]	17.0%
7. O=C(NCc1ccccc1Cl)C1=Cc2cc(Br)ccc2OC1
    84.3%[activator]	5.3%
8. CCNC(=O)CSc1nnc(-c2ccccc2Cl)n1-c1cccc(C(F)(F)F)c1
    10.5%	4.8%
9. Cc1cc2cc(NC(=O)c3nccnc3N)ccc2[nH]1
    13.9%	0.0%
10. O=C1C2=C(Nc3ccccc3SC2c2ccc(C(F)(F)F)cc2)c2ccccc21 (stereo not given)
    -22.5%	?
11. CC(C(=O)NCc1ccco1)N1CCN(CC(=O)NC2CC2)CC1 (stereo not given)
    1.1%	-1.4%
12. Cc1ccc(CSCc2ccc(C(=O)NCCc3ccc(Cl)cc3)o2)cc1
    -13.7%	-21.4%
13. O=C(CN1C(=O)COc2ccc(S(=O)(=O)N3CCCCC3)cc21)NCc1ccc(Cl)cc1
    25.1%	-16.3%
14. O=C(CCCCCn1c(=O)c2sccc2n(Cc2ccc(Cl)cc2)c1=O)NCc1ccc2c(c1)OCO2
    -3.3%	-4.2%
15. Fc1ccc(-c2csc(SCc3ccccc3F)n2)cc1
    22.4%	199.3%[activator]
16. CCOc1ccc(NC(=O)CC2C(=O)N(c3ccc(C)cc3)C(=O)N2CCC2=CCCCC2)cc1 (stereo not given)
    53.8%[activator]	28.7%
17. CCCCc1nc(NCC2CCCO2)c(C#N)c2c1CCCC2 (stereo not given)
    -8.4%	-3.2%
18. CCOC(=O)c1cc(NC/C=C/c2ccccc2)ccc1N1CCOCC1
    -17.8%	-6.9%
19. Cc1c(CCNC(=O)c2ccc(C(C)(C)C)cc2)sc2nc(-c3ccc(F)cc3)nn12
    -9.2%	-9.9%
20. CCOC(=O)C1C(=O)C=C(c2ccc(F)cc2)CC1c1ccc(C(C)C)cc1 (stereo not given)
    5.1%	-2.5%
21. CN(CC(=O)NC(=O)NCc1ccco1)Cc1ccc(Cl)cc1
    -4.2%[1.06 µM]	?
22. Cc1c(CC(=O)NCCCn2ccnc2)c(=O)oc2cc(O)ccc12
    -6.2%	6.0%
23. Cc1ccc(C(=O)COC(=O)CC23CC4CC(CC(O)(C4)C2)C3)s1
    7.6%	?
24. Cc1c(Cl)cccc1Nc1nc2ccc(C(=O)c3ccccc3)cc2n2cnnc12
    -5.3%	-5.9%
25. COc1ccc(-c2nc(CN3CCN(C(=O)Nc4ccccc4OC)CC3)c(C)o2)cc1
    -10.8%	3.8%
26. CCc1ccccc1N1CC(c2nc3ccccc3n2CCCCOc2ccccc2)CC1=O (stereo not given)
    -15.1%	-27.0%
27. Cc1cc(C(F)(F)F)nn1CC(=O)Nc1c(F)cc(F)cc1Br
    5.4%	-3.5%
28. CC1CCCCC1NC(=O)c1ccc(Cl)nc1 (stereo not given)
    3.8%	10.7%
29. Cn1c(=O)c2c(nc(SCCCCC#N)n2Cc2ccccc2Cl)n(C)c1=O
    -6.0%	-3.1%
30. Cc1ccc(CNC(=O)C(C)N2CCCC(C(F)(F)F)C2)cc1 (stereo not given)
    -1.9%	0.5%
31. CCCCCCCCCCCC(=O)Nc1cccc(C)c1C
    -3.0%[1.06 µM]	4.5%
32. COc1ccc2oc(-c3ccc(NC(=O)c4ccccc4)cc3)nc2c1
    -8.3%	140.1%[activator]
33. NC(=O)C1CCN(C(=O)CCC(=O)N2CCN(C(=O)c3cc4ccccc4[nH]3)CC2)CC1
    -9.5%	1.5%
34. Cc1ccc(NC(=O)CCc2ncc(-c3ccccc3F)o2)c(Cl)c1
    2.2%	12.2%
35. COC(=O)c1cnc(NCc2ccc(F)cc2)c2ccccc12
    -9.3%	-3.1%
36. Cc1ccc(S(=O)(=O)Nc2nc3ccccc3nc2Nc2ccc(F)cc2)cc1C
    31.5%[activator]	11.1%
37. Cc1ccc2cccc(NC(=O)c3ccccc3C)c2n1
    32.1%[activator]	20.9%
38. CC1CCCC(NC(=O)c2ccc(F)cc2Br)C1C (stereo not given)
    23.0%	82.0%[activator]
39. COc1ccc(CC(=O)Nc2sc3c(c2C(=O)Nc2ccc(C)cc2)CCCCC3)cc1
    3.2%	51.9%
40. CC1CCC/C(=N/NC(=O)c2cccs2)C1 (stereo not given)
    8.6%	0.0%
41. O=C(NCc1ccncc1)C1c2ccccc2C(=O)N(Cc2ccccc2)C12CCCCC2 (stereo not given)
    68.7%[activator]	-1.0%
42. Cc1ccc(C(=O)Nc2ccc3oc(C)nc3c2)c(C)c1
    5.3%	193.9%[activator]
43. CCCNC(=O)NC(=O)Cn1nnc(-c2ccc(F)c(C)c2)n1
    2.3%	6.2%
44. CCOCCOC(=O)C(C)Oc1ccc2c(=O)c(Oc3cc(C)ccc3C)coc2c1 (stereo not given)
    -4.2%	-4.3%
45. CN(CC(=O)Nc1ccc(Cl)cc1)Cc1cc(Cl)cc2c1OCOC2
    ?	?
46. Cc1cccn2c3c(c(=O)nc12)C(c1cccc(F)c1)CC(=O)N3 (stereo not given)
    -9.4%	0.3%
47. C=C(C)c1c(-c2ccc(OC)cc2)noc1C(C)(C)O
    0.0%	32.9%[activator]
48. CCc1ccc(OCC(O)Cn2cnc3c2c(=O)n(C)c(=O)n3C)cc1 (stereo not given)
    -2.1%	9.4%
49. O=C(CSc1nnnn1C1CC1)N1CCN(S(=O)(=O)c2cccc(C(F)(F)F)c2)CC1
    2.3%	-0.9%
50. O=C(Nc1cccc(-c2nc3cc(Cl)ccc3o2)c1)c1ccc(Br)o1
    -13.4%	48.9%[activator]
51. COc1ccccc1C(C1=C(O)CC(C)(C)CC1=O)C1=C(O)CC(C)(C)CC1=O
    -13.7%	-5.1%
52. CCOC(=O)c1ccc(NC(=O)c2cn3c4c(ccc(Cl)c4c2=O)OC(C)C3)cc1 (stereo not given)
    -0.9%	-9.3%
53. COc1ccc(-c2ccc(NS(=O)(=O)c3ccc(C(C)=O)cc3)cc2)nn1
    85.3%[activator]	8.2%
54. Cc1c(NC(=O)c2cc(-c3ccccc3)on2)c(=O)n(-c2ccccc2)n1C
    2.7%	10.5%
55. Cc1ccc2onc(CC(=O)N3CCN(c4ccc(Cl)cc4)CC3)c2c1
    0.8%	-6.1%
56. Cc1ccc(NC(=O)CN2C(=O)CSc3ccc(S(=O)(=O)N(C)C)cc32)c(C)c1
    -11.0%	-12.4%
57. CC1Cn2c(C(=O)NCCc3ccc(Cl)cc3)cc3cccc(c32)S1 (stereo not given)
    -11.4%	-10.2%
58. COC(=O)C1CN(CC(C)C)CCS(=O)(=O)N1Cc1ccc(OC)cc1 (stereo not given)
    0.0%	35.1%[activator]
59. CCc1cc(C(=O)N2CCN(c3ccccc3OC)CC2)no1
    5.0%	44.4%[activator]
60. Cc1ccc(NC(=O)CSc2cn(C)c3ccccc23)cc1
    61.2%[activator]	56.0%[activator]

Carrying on:
Values run as follows: 2A Renilla	StopGo FLuc
61. N#Cc1nc(C2CC2)oc1N1CCN(CC(=O)NC(N)=O)CC1
    -6.1%	5.0%
62. CCCC(=O)N1CCCCC1C(=O)O (stereo not given)
    -0.5%	-1.5%
63. O=C(/C=C/c1cccs1)N1CCCCCC1
    62.4%[activator]	146.8%[activator]
64. COc1ccc(-c2nc3c(c(SCc4ccc(Br)cc4)n2)Cc2c(CO)cnc(C)c2O3)cc1
    10.8%	-17.3%
65. COc1ccc(-n2c(-c3ccc(Cl)cc3)cc3c2CC(C)(C)CC3=O)c(OC)c1
    -5.2%	-24.6%
66. COc1cccc(NC(=O)CSc2nc3ccccc3n2C)c1
    27.1%	106.8%[activator]
67. Cc1nc2sc3c(c2c2nc(-c4ccc(O)cc4)nn12)CC(C)(C)OC3
    -5.6%	8.7%
68. C/C(=N/N(Cc1ccccc1)c1ccccc1)c1cccs1
    14.4%	16.1%
69. CC(C)c1ccc(CN(Cc2ccco2)c2cnc(S(C)(=O)=O)nc2C(=O)Nc2ccccc2)cc1
    -14.0%	-25.9%
70. O=S(=O)(NCc1ccccc1Cl)c1ccc(-c2cnc(C3CC3)o2)cc1
    1.0%&84.5%	?
71. Cc1nccc(C(=O)NCC(O)c2ccccc2C(F)(F)F)n1 (stereo not given)
    -5.7%	-11.3%
72. Cc1ccsc1CN(C(=O)c1oc2cc(Br)ccc2c1C)C1CCS(=O)(=O)C1 (stereo not given)
    0.0%	?
73. CSc1cccc(NC(=O)NCc2ccc(Cl)cc2Cl)c1
    20.1%	0.0%
74. C=CCNCc1ccc(Br)cc1
    7.8%	3.9%
75. N#CC(/C(=N/S(=O)(=O)c1cccs1)c1ccccc1)c1ccccn1 (stereo not given)
    27.8%	-7.8%
76. O=C(C1=Cc2sc3c(c2CS1)CCCC3)N1CCC2(CC1)OCCO2
    52.3%[activator]	0.0%
77. COc1ccc(NC(=O)c2ccc(S(=O)(=O)NCC3CCCO3)cc2)cc1 (stereo not given)
    124.1%[activator]	9.3%
78. CC(Sc1nc2ccccc2o1)C(=O)c1ccccc1 (stereo not given)
    35.6%[activator]	57.4%[activator]
79. N#Cc1ccccc1NC(=O)C(=O)NCC(c1cccnc1)N1CCN(c2ccccc2)CC1 (stereo not given)
    -18.3%	-16.3%
80. N#Cc1ccccc1COC(=O)c1ccccc1C(=O)c1ccccc1
    94.0%[activator]	220.3%[activator]
81. CC(C)Cn1c(-c2ccc(F)cc2)cnc1SC(C)C(=O)NC(N)=O (stereo not given)
    -3.1%	14.6%
82. CN(C)C(=O)c1c(NC(=O)c2ccccc2F)sc2c1CCCC2
    15.9%	-11.7%
83. CCOc1ccccc1-n1nnc(-c2nc(-c3ccccc3C)no2)c1C
    -12.2%	35.0%[activator]
84. COC(=O)C1=C(C)NC(=O)CC1c1c(F)cccc1Cl (stereo not given)
    -1.0%	7.4%
85. CCc1c(C)sc2c1c1nc(-c3cccnc3)nn1c(=O)n2CC(=O)N1CCOCC1
    12.7%	23.2%
86. C#Cc1cccc(NC(=O)Cc2ccc(OC)cc2)c1
    20.2%	0.0%
87. COc1cccc(CNC(=O)c2ccc3c(c2)nc2n3CCCCC2)c1OC
    0.1%	0.0%
88. CC(SCc1cccc(C#N)c1)C(=O)NC(C)(C)C (stereo not given)
    0.3%	0.0%
89. O=C(CN1CCc2sccc2C1c1cccs1)Nc1cccc(F)c1 (stereo not given)
    11.9%	-3.0%
90. O=C(NCc1ccc(CN2CCCC2)cc1)c1cccc(Br)c1
    -16.4%	-13.2%

Entries of single compounds, quoted from the list.
CC(C)Cn1c(-c2ccc(F)cc2)cnc1SC(C)C(=O)NC(N)=O (stereo not given) as listed: 2A Renilla = -3.1%; StopGo FLuc = 14.6%
COc1ccc(-c2nc3c(c(SCc4ccc(Br)cc4)n2)Cc2c(CO)cnc(C)c2O3)cc1 as listed: 2A Renilla = 10.8%; StopGo FLuc = -17.3%

(further entries)
Values run as follows: 2A Renilla	StopGo FLuc
91. COc1ccc(CCNC(=O)c2ccc(Cn3c(=O)c4ccccc4n(Cc4ccccc4Cl)c3=O)cc2)cc1OC
    -4.0%	4.6%
92. CCCCN(CCCC)C(=S)SCC(=O)n1c2ccccc2c2ccccc21
    5.3%	-4.3%
93. CCCOc1ccc(CNC(=O)C2CCN(c3nn4c(=O)cc(C)nc4s3)CC2)cc1
    -8.3%	-0.3%
94. O=C(Nc1ccccc1)N(Cc1ccc(F)cc1)c1ccccn1
    14.2%&19.5%	0.0%&30.6%
95. CCOC(=O)C1=C(C)N(C)C(=O)N(C)C1c1cccc(Br)c1 (stereo not given)
    3.3%	5.2%
96. Cc1ccc(NC(=O)c2nccnc2N)cc1I
    -5.6%	172.3%[activator]
97. Cc1coc2c1c(C)cc1oc(=O)c(CC(=O)NCc3ccc(Cl)cc3)c(C)c12
    -5.1%	27.3%
98. Cc1ccc(C(C)NC(=O)CSc2nc(CN3CCOCC3)nc3ccccc23)cc1C (stereo not given)
    -18.6%	-20.6%
99. C[N+]1(CC#Cc2ccc(C#CC[N+]3(C)CCCC3)cc2)CCCC1
    1.5%	2.0%
100. CCCCc1ccc(NC(=O)c2cc3c(=O)n4ccccc4nc3s2)cc1
    ?	?
101. CCOc1ccc(NC(=O)CSC2=Nc3ccccc3C3=NC(CCC(=O)NCc4cccs4)C(=O)N23)cc1 (stereo not given)
    -9.4%	-23.8%
102. CCC(CC)NC(=O)NC(C)c1ccccc1Br (stereo not given)
    1.3%	-10.4%
